CapD inh = inhibitors of Bacillus anthracis CapD enzyme. purified CapD enzyme, fluorescence intensity read-out; stronger effect = lower value; some hits fall short of the stated cut. z-score (concentration not given with the values). actives 0.23% (n = 140,000). AID 492967;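 active means z-score under -4 in either of two replicates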;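 further: stock transfer was 100 nL into about 40 µL; score is relative to mean and spread of the plate; one replicate is shown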
AID504770 = E. coli YBA685 growth inhibition, screen for V. cholerae RctB inhibitors. E. coli YBA685 rctB-dependent plasmid, OD600 growth, 3 h; stronger effect = lower value. z-score (concentration not given with the values). actives 0.27% (n = 130,000). AID 504770;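 active means z-score under -2 on both plates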;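 further: wells of about 30 µL received 100 nL stock; score is relative to mean and SD of the test wells; the first replicate is given; strong numbers were not always called active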
Starred values were filed as active, the others as inactive; i = inactive; . = not tested or not shown.

structure | CapD inh | AID504770
CN1C(=O)/C(=C\c2ccc(C(=O)O)cc2)c2cc(Br)ccc21 | -0.99 | -0.6
CC(C)COC(=O)Nc1cccc2ccccc12 | 1.6 | -1.6
O=c1cc(CO)[nH]cc1OCc1ccccc1 | 0.05 | -0.4
CCn1c(CS(=O)Cc2ccc(Cl)cc2Cl)n[nH]c1=S (stereo not drawn) | -0.015 | .
O=C(O)c1ccc(/C=c2/sc3nc4ccccc4n3c2=O)cc1 | . | -0.5
C=CCOc1ccc(C2C(C(=O)OCC)=C(C)N=c3s/c(=C/c4ccccn4)c(=O)n32)cc1OCC (stereo not drawn) | -0.44 | .
CC(C)CN(CC(C)C)CN1CC(COc2cccc3ccccc23)OC1=O (stereo not drawn) | 0.32 | -0.3
Cc1ccc(-c2nc(N)sc2CC(=O)OCC(=O)N(C)C2CCS(=O)(=O)C2)cc1 (stereo not drawn) | . | -0.15
CN1CCc2c(c(NCCO)nc3n[nH]c(N)c23)C1 | -0.02 | -0.3
CN1CCN(/C=C/C(=O)C(F)(F)F)CC1 | . | 0.2
Cc1ccc(Cl)cc1N1CCN(CCCNc2ncnc3c2nc2n3CCCCC2)CC1 | 0.09 | 0.1
CC1CC(C(F)F)n2nc(C(=O)Nc3sc4c(c3C#N)CCC(C(C)(C)C)C4)nc2N1 (stereo not drawn) | . | -0.1
COc1ccc(C(=O)NN(C)c2nc(C(F)(F)F)nc3ccccc23)cc1 | 0.14 | .
Fc1ccc(Nc2nc(-c3ccncc3)nc3ccccc23)cc1F | 0.26 | .
CC(=O)N1CCN(C(=O)/C=C/c2ccc(Br)cc2)CC1 | . | 0.35
COc1ccccc1N1CCN(c2ncnc3sc(C(=O)NCc4ccco4)c(C)c23)CC1 | -0.39 | .
CCCN1CCC(=NNc2c(Cl)cc(Cl)cc2Cl)CC1 | . | 1
Cc1ccc(Cl)cc1NC(=S)N(C(C)C)C1CCN(C(C)C)CC1 | -1.1 | -0.25
CCN(C(=N)SC)c1ccccc1 | -0.48 | .
O=C(NCc1cccnc1)c1cccc2c1OCCCO2 | 0.22 | -0.5
CSc1ccc(C=C2C(=O)OC(C)(C)OC2=O)s1 | 0.65 | -0.95
Cc1nn(C)c(C)c1-n1nncc1C | 0.47 | -0.2
O=C(c1ccco1)N1CCN(C(=O)C(Cc2ccccc2)NS(=O)(=O)c2cccc3nsnc23)CC1 (stereo not drawn) | -0.29 | -0.25
CCN(c1ccc(C(=O)CSc2nnc(-c3cccs3)n2C2CC2)cc1)S(C)(=O)=O | . | -1.2
CCOC(=O)c1ccc(N=Cc2c(O)[nH]c(=O)[nH]c2=O)cc1 | -0.4 | -0.75
CC(=O)Nc1ccc(NC(=O)C(C)OC(=O)C23CC4CC(CC(C4)C2)C3)cc1 (stereo not drawn) | -0.49 | -1
Cc1cc(C)c2c(c1)NC(c1ccc(Cl)cc1Cl)C1CC=CC21 (stereo not drawn) | 0.31 | .
CN(C)S(=O)(=O)c1ccc2nnn(OCCOc3cccc(Br)c3)c2c1 | . | 1.5
NC(=O)c1cc(S(=O)(=O)N(Cc2ccco2)C2CCCCC2)cs1 | 0.61 | 0.55
N#C/C(=C\NCc1cccnc1)S(=O)(=O)Cc1ccc(Cl)cc1 | -0.28 | -1.2
CN(C)/C=C1\C(=O)N(c2ccc([N+](=O)[O-])cc2)N=C1c1ccccc1 | -1.9 | .
Cc1ccccc1C1Nc2ccc3ncccc3c2C2=C1C(=O)CC(C)(C)C2 (stereo not drawn) | 14 | .
NC(=O)CN(c1ccccc1)S(=O)(=O)c1ccc(F)cc1 | -0.19 | -0.85
COc1ccc(C)cc1NC(=O)c1sc2nc(C)nc(N3CCN(c4ccccn4)CC3)c2c1C | 0.2 | .
Cc1cccc(OCCC(=O)NCC2(N3CCOCC3)CCCCC2)c1 | . | 1
CCOC(=O)c1c(C)[nH]c(/C(C)=N/NC(=O)Cn2nc(C)cc2C)c1C | . | 0.9
Cc1cc(O)c(C=Nc2cccc(F)c2)c(=O)o1 | -0.12 | -0.3
Cc1ccc(Nc2nc(C(=O)N3CCC(C(=O)NCCN4CCOCC4)CC3)cs2)cc1 | . | -0.65
CSc1ccc(-c2nc(SCC(=O)NCc3ccco3)c(-c3ccccc3)[nH]2)cc1 | 0.035 | 1.9
CCCN1C(=O)/C(=C2/C(=O)N(Cc3ccc(C)cc3)c3ccccc32)SC1=S | -0.79 | 0
O=C1C=CC(=NS(=O)(=O)c2ccc(C(=O)O)cc2)C=C1 | -2 | -0.55
CCC(C)C(=O)NCc1ccc(C)cc1 (stereo not drawn) | . | -0.05
O=C(CSc1nccc(=O)[nH]1)Nc1ccc(Cl)cc1 | . | -1.1
COC(=O)C1=C(C(=O)OC)SC(=C2C(=S)C(C)(C)N(C(=O)C3CC3)c3ccc(OC)cc32)S1 | -0.015 | .
NC(=O)N/N=C/c1ccc(/C=N/NC(N)=O)cc1 | 0.77 | 2
Cc1ccccc1CNC(=O)C1CCN(C(=O)c2sccc2-n2cccc2)CC1 | -0.42 | 0.6
O=C(Cn1cccc1)Nc1ccc(F)cc1F | 0.41 | -0.45
O=C1NC(=Nc2ccccc2)SC1Cc1ccccc1Cl (stereo not drawn) | -0.03 | -0.65
CCOc1ccc(-n2c(=S)sc3c(=O)n(-c4ccc(C)cc4)c(=S)[nH]c32)cc1 | -1 | .
CCOC(=O)C(C)Oc1cc(C)cc2oc(=O)c3c(c12)CCCC3 (stereo not drawn) | 1.7 | .
CCCCOc1ccc(-n2c(N)c(C#N)c3nc4ccccc4nc32)cc1 | . | 1.3
CN(C)CCN(C(=O)c1ccco1)c1nc2cc3c(cc2s1)OCO3 | -2.6 | 0.15
CC(C)(C)C(=O)/C=C1\SCC(=O)N1CC(=O)N1CCN(c2ccccc2)CC1 | . | -0.1
O=C1CCCC2=C1C(c1ccc(Br)cc1)n1ncnc1N2 (stereo not drawn) | 0.89 | 0.75
O=C(Nc1nc(-c2csc(NC(=O)C3CC3)n2)cs1)C1CC1 | -0.8 | -0.4
N#CCC(=O)NC(=O)c1cc2ccccc2oc1=O | . | 0.1
Cc1ccc(Cn2c(=O)c3ccccc3n3c(SCC(=O)N4CCCC4)nnc23)cc1 | . | 0.25
FC(F)(F)c1cccc(N2CCNCC2)c1 | -1.2 | .
CC1(C)CC2CC(C)(CN2CC(O)COc2ccc(F)cc2Cl)C1 (stereo not drawn) | -0.55 | 0.75
O=C(COc1ccc(Cl)cc1Cl)OCCN1CCOCC1 | -0.07 | -0.95

Complete entries, looked up by structure:
Shown for `O=C(Nc1nc(-c2csc(NC(=O)C3CC3)n2)cs1)C1CC1` → CapD inh: -0.8; AID504770: -0.4
Shown for `O=C(COc1ccc(Cl)cc1Cl)OCCN1CCOCC1` → CapD inh: -0.07; AID504770: -0.95

Next part
structure | CapD inh | AID504770
CS(=O)(=O)Nc1ccc(Cl)cc1C(=O)c1ccccc1 | 2.4 | -0.85
COc1cc(C(=O)Nn2c(O)c(C3=c4ccccc4=NC3=O)sc2=S)ccc1O | -0.22 | .
CNc1nc(Nc2ccc(C(C)=O)cc2)nc(OC(C(F)(F)F)C(F)(F)F)n1 | -0.095 | .
Cc1ccc(N2NC(C)(CCC(C)C)NC2=S)cc1 (stereo not drawn) | -0.04 | .
CCOC(=O)c1cc(-c2ccccc2)[nH]c(=O)c1C#N | 21 | 0.3
O=C(CC1CCCC1)NCCS(=O)(=O)N1CCN(c2ccccc2)CC1 | . | 0.35
O=C(OCC(=O)N1CCCCC1)c1cc(=O)[nH]c(=O)[nH]1 | . | 0.8
CC(=O)Nc1ccc(NC(=O)c2cccc(C)c2)cc1 | . | -1
CCCc1cc(C(=O)Nc2nnc(CC)s2)sc1C | . | -0.2
O=c1c(-c2ccccc2)c1-c1ccccc1 | 0.41 | .
N#Cc1c(/N=C/c2ccccc2[N+](=O)[O-])oc(-c2ccccc2)c1-c1ccccc1 | 4.3 | .
COc1ccccc1N1CCN(c2ncnc3sc(C(=O)NCC4CCCO4)c(C)c23)CC1 (stereo not drawn) | -0.28 | .
Cc1nn(-c2ccccc2)c2c1N(CCCC(=O)NC1CCCCC1)C(=O)CS2 | 0.49 | -0.15
CC(C)C(=O)Nc1nnc(C23CC4CC(CC(C4)C2)C3)s1 | i | 0.3
CCCN(CCC)C(=O)c1c(NC(=O)c2cccnc2)sc2c1CCCCC2 | -0.23 | .
CSc1ncnc2sc3c(c12)CCCC3 | -0.74 | 1.4
CS(=O)(=O)N1CCCCCC1 | -0.15 | -0.1
Cc1nc(C(F)(F)F)c(-c2ncn(-c3ccccc3)n2)s1 | 0.55 | 0.8
Cc1ccc(NC(=O)CSc2nc3c(cc2C#N)C(=O)CC(C)(C)C3)cc1 | -0.56 | 0.05
CNC(=S)N1N=C2c3ccccc3CCC2C1c1ccc(OC)cc1 (stereo not drawn) | -2 | -0.3
O=C(O)c1ccc(NNC(=S)NCC2CCCO2)cc1 (stereo not drawn) | . | -0.15
Cn1c(CN2CCC(C(N)=O)CC2)c(C#N)c2ccccc21 | -0.12 | -0.55
COc1ccc(C(=O)N2CCN(c3ncnc4cc(-c5ccccc5)sc34)CC2)cc1OC | 20 | 0.3
CCOc1ccc(C(=O)Nc2sc3c(c2C(N)=O)CCC3)cc1 | 2.7 | 0.05
O=C(CN1c2cccc3cccc(c23)S1(=O)=O)N1CCCCCC1 | . | 0.1
CN(C)c1ccc(C(=S)N2CCNCC2)cc1 | . | -0.5
CN1C(=O)C(=Cc2ccccc2OS(=O)(=O)c2ccccc2)C(=O)N(C)C1=O | 1.1 | .
Clc1cnc(Cl)c(Cl)c1 | -0.63 | 2.1
O=C(c1ccc(Cl)cc1)N1CCCc2ccccc21 | -0.33 | -0.7
COc1ccc(N2CCN(C(=O)c3cccnc3Nc3ccccc3F)CC2)cc1 | . | -0.35
Cc1ccccc1NC(=O)CC(Cc1ccccc1)C1CCOC(C)(C)C1 (stereo not drawn) | -0.96 | -0.95
CCC(C)NC(=O)CSc1nc2n[nH]c(C)c2c(=N)n1-c1ccccc1Cl (stereo not drawn) | 5.2 | -0.45
CC(C)n1c(O)c(N=NC(=O)c2ccc(O)cc2)c2ccccc21 | . | -0.3
Cc1cc2c3c(c1)C1(C(=O)N3C(C)(C)CC2C)C(C#N)=C(N)Oc2n[nH]c(C)c21 (stereo not drawn) | -0.31 | -0.8
COc1cc(N=Cc2nc(-c3ccccc3Br)oc2O)c(C(=O)O)cc1OC | 0.39 | .
CC1(C)CC(=O)C=C(NCCCc2[nH]nc(N)c2C#N)C1 | . | 0.75
FC(F)(F)C1(C(F)(F)F)N=C(c2ccccc2)NC(c2ccccc2)=N1 | -0.32 | 0.8
CC(=O)N/N=C/c1ccc(-c2cc(C(F)(F)F)n(C)n2)s1 | 1.4 | -0.1
COc1ccc(OC(=O)c2c(C)nn(-c3ccccc3)c2C)cc1 | -0.34 | -0.85
CC1=CC(C)(C)Nc2ccc(OC(=O)Cc3ccccc3)cc21 | 36 | -0.7
O=C(CN1C2=NCCCN2c2ccccc21)c1ccc(Cl)c(Cl)c1 | -0.18 | .
COC(=O)c1cccc(N2C(=O)/C(=C/c3ccc([N+](=O)[O-])cc3)C=C2c2ccccc2)c1 | 0.17 | .
Cn1c2c(c(=O)[nH]c1=O)C1(O)C(=O)c3ccccc3C1(O)N2 (stereo not drawn) | 0.025 | -0.55
CCOC(=O)c1c(-c2ccccc2)c2oc3ccccc3c2[nH]c1=O | -1.8 | 0.65
CCNC(=O)CSc1nnc(-c2cccc(S(=O)(=O)N(CC)CC)c2)n1-c1ccccc1 | . | -0.8
COC(=O)c1cccc(-c2ccc(C=C3C(=O)OC(c4ccccc4)OC3=O)o2)c1 (stereo not drawn) | 0.19 | 0.3
CN(C)C(CNC(=O)c1ccccn1)c1ccco1 (stereo not drawn) | . | -0.2
O=C1OCC(CO)(CO)N=C1NNc1ccccc1 | . | -0.85

Three compounds from above, arranged by molecular weight, rising:
structure | CapD inh | AID504770
FC(F)(F)C1(C(F)(F)F)N=C(c2ccccc2)NC(c2ccccc2)=N1 | -0.32 | 0.8
COC(=O)c1cccc(-c2ccc(C=C3C(=O)OC(c4ccccc4)OC3=O)o2)c1 (stereo not drawn) | 0.19 | 0.3
CCNC(=O)CSc1nnc(-c2cccc(S(=O)(=O)N(CC)CC)c2)n1-c1ccccc1 | . | -0.8

Continued.
structure | CapD inh | AID504770
CC(=O)NCCc1ccc(S(=O)(=O)N(C)C)cc1 | -0.57 | 0
O=C(COC(=O)c1cccs1)NCc1ccccc1 | 0.11 | 0.95
Cc1cccc(OCC(O)CN2CCc3ccccc3C2)c1 (stereo not drawn) | -0.12 | 0.1
Cc1cc(C(C)(C)C)oc1C(=O)O | . | -0.25
COc1ccc(C(=O)N2CCN(Cc3ccc(OC)c(OC)c3OC)CC2)cc1 | -0.69 | 1.5
COc1ccc(-c2cc(C(F)(F)F)n3nc(C(=O)NCCCN4CCOCC4)cc3n2)cc1OC | 0.3 | .
COc1cc2c3c(c1OC)-c1ccccc1CC3N(C)CC2 (stereo not drawn) | 0.83 | -0.4
COc1ccc(Cc2nnc(SCC(=O)NC(C)C)n2-c2ccc(F)cc2)cc1OC | -1.3 | -0.05
CN1CCN(c2ccc(C3C4=C(CC(C)(C)CC4=O)OC4=C3C(=O)CC(C)(C)C4)cc2[N+](=O)[O-])CC1 | -0.1 | .
Cc1ccc(Nc2nc(SCc3ccccc3)nnc2C)cc1 | -0.01 | 0.55
O=C1CCCC(O)=C1C=Nc1ccc(N=CC2=C(O)CCCC2=O)cc1 | 0.21 | -0.65

Reprinted at random: three records from the list, in no set order.
structure | CapD inh | AID504770
CCC(C)NC(=O)CSc1nc2n[nH]c(C)c2c(=N)n1-c1ccccc1Cl (stereo not drawn) | 5.2 | -0.45
CCCN1CCC(=NNc2c(Cl)cc(Cl)cc2Cl)CC1 | . | 1
CNc1nc(Nc2ccc(C(C)=O)cc2)nc(OC(C(F)(F)F)C(F)(F)F)n1 | -0.095 | .

Screening results as filed in PubChem.
